Bioassay records: PubChem, several laboratories
Arbovirus anti – blocks arbovirus infection | hit rate 0.37% among 200,000 | inhibition, % at 10 µM | arbovirus infection cell-based antiviral screen | AID 1251;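 active = inhibition from about 30%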;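 also: bluetongue infection of BSR cells; cell survival read as ATP light after 72 h; 0% = infected wells without compound and 100% = uninfected wells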
Mtb growth – M. tuberculosis H37Rv growth inhibitors, H37Rv strain (AID 1626) | M. tuberculosis H37Rv growth inhibition; higher % means a stronger effect | one-dose inhibition, % at 10 µM; IC50 in µM for titrated hits | hit rate 0.95% among 220,000;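 active = confirmed in a dose series; inconclusive = inhibition above 80% but not taken into the dose series; inactive = below 80% or under 30% at every dose of the series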;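 also: bacteria incubated seven days before Alamar blue readout; 0% = bacteria only wells and 100% = bacteria with antibiotic wells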
RecA intein inh – Mtb RecA intein splicing inhibition. hit rate 0.75% among 290,000. AID 2221. cell-free RecA intein splicing, fluorescence. P9WHJ3. inhibition, %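 (about 9 µM by stock and volumes)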; in the data active = inhibition above about 30%; inconclusive = no clear call, values can overlap the other calls;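 also: 0% = vehicle wells and 100% = reference inhibitor control wells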
Target sequence (P9WHJ3 whole entry, looked up): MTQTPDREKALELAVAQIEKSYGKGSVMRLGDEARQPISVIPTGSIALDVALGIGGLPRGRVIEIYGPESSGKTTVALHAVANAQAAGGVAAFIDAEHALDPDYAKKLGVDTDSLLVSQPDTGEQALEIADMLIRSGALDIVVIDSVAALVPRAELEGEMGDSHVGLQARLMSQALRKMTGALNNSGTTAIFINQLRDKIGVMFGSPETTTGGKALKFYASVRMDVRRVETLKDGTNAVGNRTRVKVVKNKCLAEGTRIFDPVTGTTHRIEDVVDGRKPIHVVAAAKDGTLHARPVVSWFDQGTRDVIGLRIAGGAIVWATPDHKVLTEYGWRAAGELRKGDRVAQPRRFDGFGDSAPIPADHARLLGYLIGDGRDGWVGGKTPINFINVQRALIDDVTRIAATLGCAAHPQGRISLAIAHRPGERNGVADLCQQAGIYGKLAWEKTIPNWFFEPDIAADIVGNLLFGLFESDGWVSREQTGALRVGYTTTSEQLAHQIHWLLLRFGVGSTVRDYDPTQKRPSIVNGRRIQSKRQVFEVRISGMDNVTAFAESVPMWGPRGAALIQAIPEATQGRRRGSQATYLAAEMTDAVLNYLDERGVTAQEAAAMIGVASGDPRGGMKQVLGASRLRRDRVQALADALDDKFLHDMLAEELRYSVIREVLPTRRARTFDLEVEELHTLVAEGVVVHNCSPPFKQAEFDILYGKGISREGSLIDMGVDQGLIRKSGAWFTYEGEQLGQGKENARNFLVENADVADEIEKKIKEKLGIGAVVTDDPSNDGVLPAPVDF
Mtb betalactam – beta-lactam sensitization of Mtb H37Rv; hit rate 0.27% among 330,000; inhibition, % at 25 µM; M. tuberculosis H37Rv growth with meropenem, percent inhibition; hits of this screen are not shown here;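 active = about 74% or more and at least 40 points above the plate without the antibiotic, then above 30% in a dose series; inconclusive = first-round hits that could not be retested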;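 also: growth measured after seven days incubation then overnight dye step; 0% = bacteria only wells and 100% = bacteria with antibiotic; twin plates without the antibiotic show which effects depend on it; some results filed as inactive read as strong as hits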
YopH PTP inh – inhibitors of Yersinia enterocolitica YopH tyrosine phosphatase; AID 898; hit rate 0.16% among 140,000; fluorescence Ex485/Em525; inhibition, %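 (about 10 µM by stock and volumes)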;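 active = inhibition of 50% or more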;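 also: controls were vehicle for no effect and minimum signal wells for full effect; inactives centre near -20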
Arbovirus anti repeat – second read-out of Arbovirus anti, no call of its own (marks repeat the call); inhibition, %; measured here: 10K subset replicate screen; many hits read low in the repeat;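 first of two repeat runs on a subset; 0% = infected and 100% = uninfected wells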
Starred values were filed as active, the others as inactive; ? = inconclusive; / = not tested or not shown. This is a subset; the hit share may differ from the screen's.

SMILES | Arbovirus anti | Mtb growth | RecA intein inh | Mtb betalactam | YopH PTP inh | others
Cc1nnnn1CC(=O)Nc1cccc([N+](=O)[O-])c1 | 3 | 13% | -0.2 | 2 | /
C/C(=N\Nc1cc(Cl)nc(C)n1)c1ccccc1 | -3 | 1% | 0.2 | 9 | -39
COc1cccc(Nc2nc3ccccc3n3nnnc23)c1 | -15 | 2% | 0.1 | 0 | -30
CC1=NN(c2ccc(C)cc2)C(=O)/C1=C\c1ccc(Br)s1 | 3 | 0% | 20 | 2 | -24
CCN1CCN(C(=O)CN(CC)S(=O)(=O)c2ccc3ccccc3c2)CC1 | / | / | -2.6 | 1 | /
COC(=O)c1cn(C)c2ccc(S(=O)(=O)N3CCCC3)cc2c1=O | 1 | 4% | 0.2 | / | -49
CCC(=O)Nc1c2c(nn1-c1ccc(OC)cc1)CSC2 | / | / | -3.0 | -9 | /
CC(=O)N1CCOCCOCCN(C(C)=O)CCOCCOCC1 | 2 | -1% | / | -6 | /
Cn1c(=O)[nH]c(=O)c2cc(C(=O)c3cc(F)ccc3O)cnc21 | -5 | 0% | 3.4 | 42 | /
Cn1c(CC(=O)Nc2ccc(F)cc2)nnc1SCC(=O)Nc1nncs1 | / | / | -0.4 | 0 | /
Cc1cc(SCC(=O)NC2CCCC2)nc2ccccc12 | / | / | -0.9 | 5 | /
O=C(Nc1nnc(CSCc2ccc(F)cc2)s1)c1ccc([N+](=O)[O-])cc1 | 14 | 8% | 0.2 | 3 | -15
O=C(N/N=C/C1C(c2ccccc2)C1(Cl)Cl)c1cccc(Cl)c1 (configuration not stated) | 1 | 0% | 2.2 | 23 | -18
O=c1cnn(Cc2ccc(Cl)c(Cl)c2)c2ccccc12 | / | / | 5.0 | 2 | /
CC1CCCCC1NC(=O)c1c(O)nc2ccccn2c1=O (configuration not stated) | / | / | 6.0 | 2 | /
Cc1ccc(C(=O)NCCCNC(=O)COc2ccc(Cl)cc2)cn1 | / | / | 0.5 | -5 | /
CN1CCN(c2ccccc2NC(=O)c2cc3ccccc3o2)CC1 | -20 | 8% | -1.8 | 1 | -6
CCC(C(=O)NCc1ccccn1)n1c2ccccc2c2nc(=O)cc(C)n21 (configuration not stated) | / | / | 0.1 | 2 | /
COc1ccc(CCn2c(=S)[nH]c3cc(C(=O)NCc4ccco4)ccc3c2=O)cc1OC | -3 | / | 1.4 | -7 | -18
CCOC(=O)C(Oc1ccc2c(-c3ccccc3)cc(=O)oc2c1)c1ccccc1 (configuration not stated) | -3 | 15% | 11 | 63 | -17

Among those listed so far, two contain an aryl thioether with sulfur outside any ring.
SMILES | Arbovirus anti | Mtb growth | RecA intein inh | Mtb betalactam | YopH PTP inh | others
Cn1c(CC(=O)Nc2ccc(F)cc2)nnc1SCC(=O)Nc1nncs1 | / | / | -0.4 | 0 | /
Cc1cc(SCC(=O)NC2CCCC2)nc2ccccc12 | / | / | -0.9 | 5 | /

Following part
SMILES | Arbovirus anti | Mtb growth | RecA intein inh | Mtb betalactam | YopH PTP inh | others
O=C(CCCNC(=O)/C(=C/c1ccccc1F)NC(=O)c1ccccc1)OCc1ccccc1 | 1 | -9% | -0.7 | 0 | -18
COc1ccc2nc(SCC(=O)Nc3cc(OC)c(OC)cc3C(=O)O)c(C)cc2c1 | -1 | -9% | -1.4 | 3 | /
COc1ccc(/C=N/NC(=O)CCc2n[nH]c(=O)[nH]c2=O)cc1OC | -15 | 1% | 2.8 | 4 | 8
COc1cccc(OC)c1C(=O)Nc1ccc2c(c1)N(S(=O)(=O)c1cccs1)CCC2 | / | / | 7.7 | -4 | /
CC(C)=CC(O)C/C(C)=C/COc1ccc2ccc(=O)oc2c1 (configuration not stated) | / | 0% | -1.1 | -6 | /
COc1cc(OC)c(C(=O)Oc2ccc3c(c2)OCO3)cc1OC | -1 | 4% | -0.9 | 34 | -31
N#CC1(c2ccccc2)CCN(C2CC(=O)N(c3cccc(F)c3)C2=O)CC1 (configuration not stated) | 2 | 3% | 0.9 | -3 | /
O=C(COC(=O)c1cnccn1)Nc1ccc2c(c1)OCO2 | 3 | 1% | -1.7 | -9 | -15
CCN(CC)S(=O)(=O)c1ccc(OC)c(NC(=O)c2cccc(C)c2[N+](=O)[O-])c1 | -2 | 7% | -1.9 | 5 | /
CCCN1C(=O)c2ccc(C(=O)Nc3ccccc3C(=O)O)cc2C1=O | / | / | -0.9 | 3 | /
COc1ccc(C)cc1N(CC(=O)Nc1ccc(S(=O)(=O)N2CCCC2)cc1)S(C)(=O)=O | / | / | -0.7 | 0 | /
CCc1nnc(NC(=O)CSc2ncc(-c3ccccc3)[nH]2)s1 | 13 | -4% | -1.8 | 7 | -15
CCCc1nnc(NC(=O)C(=O)NCCN(CC)CC)s1 | / | -8% | -5.6 | / | /
COc1cc(Cn2c(-c3ccc(O)c(OC)c3)nc3ccccc32)ccc1O | / | 3% | 2.1 | -3 | /
O=C(Nc1cccnc1)C1CCCN1S(=O)(=O)c1ccc(Cl)c(Cl)c1 (configuration not stated) | 2 | 0% | 0.2 | -11 | -8
CCOC(=O)CCC(NC(=O)c1ccc(NCN2C(=O)CCC2=O)cc1)C(=O)OCC (configuration not stated) | 4 | -4% | 0.3 | 16 | -34
Cc1ccccc1OCC(=O)NCCC(=O)O | 0 | -6% | -0.8 | 6 | -51
COCCNC(=O)C1CCC(=O)N1S(=O)(=O)c1ccc(C)cc1 (configuration not stated) | / | / | -2.2 | -2 | /
CCN(CC)S(=O)(=O)c1cc(Cl)ccc1OC | 3 | 1% | -0.9 | -2 | /
CN(CCc1cn[nH]c1)Cc1nc(C(c2ccccc2)c2ccccc2)no1 | -1 | -2% | 11 | 0 | /

4 records picked at random from the list so far, as already listed:
SMILES | Arbovirus anti | Mtb growth | RecA intein inh | Mtb betalactam | YopH PTP inh | others
COc1cccc(OC)c1C(=O)Nc1ccc2c(c1)N(S(=O)(=O)c1cccs1)CCC2 | / | / | 7.7 | -4 | /
CCc1nnc(NC(=O)CSc2ncc(-c3ccccc3)[nH]2)s1 | 13 | -4% | -1.8 | 7 | -15
CN(CCc1cn[nH]c1)Cc1nc(C(c2ccccc2)c2ccccc2)no1 | -1 | -2% | 11 | 0 | /
Cc1nnnn1CC(=O)Nc1cccc([N+](=O)[O-])c1 | 3 | 13% | -0.2 | 2 | /

By substructure: those above containing fluorine (five)
SMILES | Arbovirus anti | Mtb growth | RecA intein inh | Mtb betalactam | YopH PTP inh | others
Cn1c(=O)[nH]c(=O)c2cc(C(=O)c3cc(F)ccc3O)cnc21 | -5 | 0% | 3.4 | 42 | /
Cn1c(CC(=O)Nc2ccc(F)cc2)nnc1SCC(=O)Nc1nncs1 | / | / | -0.4 | 0 | /
O=C(Nc1nnc(CSCc2ccc(F)cc2)s1)c1ccc([N+](=O)[O-])cc1 | 14 | 8% | 0.2 | 3 | -15
O=C(CCCNC(=O)/C(=C/c1ccccc1F)NC(=O)c1ccccc1)OCc1ccccc1 | 1 | -9% | -0.7 | 0 | -18
N#CC1(c2ccccc2)CCN(C2CC(=O)N(c3cccc(F)c3)C2=O)CC1 (configuration not stated) | 2 | 3% | 0.9 | -3 | /

Carrying on:
SMILES | Arbovirus anti | Mtb growth | RecA intein inh | Mtb betalactam | YopH PTP inh | others
Cn1cc(C(N)=O)c2ccccc21 | 1 | -3% | -2.4 | -5 | / | Arbovirus anti repeat=0
C[N+](C)(C)CCOC(=O)C1(c2ccccc2)CCCC1 | 9 | -5% | 5.1 | 1 | -13
CC1CC(C)CN(S(=O)(=O)N2CCCC(C(=O)NC3CCCCC3)C2)C1 (configuration not stated) | / | / | -1.8 | -10 | /
CCN(C(=O)C(C)OC(=O)C1C(C(=O)OC)=C(C)NC(C)=C1C(=O)OC)c1ccccc1 (configuration not stated) | -5 | 7% | -0.1 | -2 | /
CCNC(=O)C(Cc1ccccc1)NC(=O)OCc1ccccc1 (configuration not stated) | 0 | -8% | 0.1 | -1 | /
CCC1(C)OC(=O)N(CCCn2ccnc2C)C1(C)O (configuration not stated) | 3 | -15% | -3.2 | 0 | -8
CC(=O)N1CCN(c2ccnc3cc(Cl)ccc23)CC1 | / | 0% | -0.7 | 1 | /
Cc1ccc(C(=O)N(CC(=O)Nc2sc(C)c(C)c2C(N)=O)C2CCCC2)cc1 | / | / | -6.1 | 5 | /
CCCCn1nc2cc(C(=O)NCCc3ccc(C)cc3)ccc2c1OCC | -7 | -5% | 4.9 | 6 | -25
COc1ccc(NC(=O)CSc2ncnc3c2cnn3Cc2ccccc2)cc1OC | -1 | 1% | 0.2 | -17 | 8
CC(C#N)Sc1ncnc2sc3c(c12)CCC3 (configuration not stated) | 13 | 4% | 2.7 | 2 | -21
O=C(O)CCn1c(SCCOc2ccccc2F)nc2ccccc21 | / | / | 2.7 | 1 | /
O=C1/C(=C/c2cccnc2)Cc2ccc(Cl)cc21 | / | / | 4.2 | 68 | /
NS(=O)(=O)c1ccc(CCNC(=O)c2ccc([N+](=O)[O-])s2)cc1 | / | / | -4.4 | 10 | /
COc1ccc(NC(=S)N2CCN(C/C=C/c3ccccc3)CC2)cc1OC | 3 | -4% | -1.7 | -13 | -32
COc1ccc(C(=O)O)cc1S(=O)(=O)N(C)C | 2 | -8% | -2.1 | -3 | /
COc1ccc(NCC(=O)N/N=C(\C)c2cc3ccccc3o2)cc1 | -13 | ? | / | 85 | /
Cc1nnc(C)n1/N=C/c1ccc(-c2ccccc2)cc1 | -6 | 5% | 5.6 | 4 | -22
CCc1ccc(CN2CCC(Oc3ccc(C(=O)N4CCCCC4)cc3)CC2)cc1 | / | / | -2.0 | 48 | /
Cc1ccc2cc(C(c3nnnn3C3CCCC3)N(Cc3ccccc3)Cc3ccco3)c(=O)[nH]c2c1 (configuration not stated) | -8 | 1% | 8.6 | -4 | -35
O=C(O)CSc1nc(-c2ccccc2)nc2c1oc1ccccc12 | -3 | -6% | -1.1 | 48 | -25
O=C(c1cn(-c2ccccc2)nc1-c1ccc(Br)cc1)N1CCOCC1 | -2 | 3% | 1.7 | 8 | -28
Cc1ccc(C2NNC(=O)C2NC(=O)c2ccccc2)cc1 (configuration not stated) | 13 | 8% | 1.1 | 0 | -6
Brc1ccc(-n2c(SCc3nc4ccccc4[nH]3)nnc2-c2ccncc2)cc1 | 3 | -2% | 0.7 | 10 | -1
O=C(CSc1nnc(-c2ccccn2)n1Cc1ccco1)c1ccccc1 | -2 | -1% | 0.3 | -9 | -46 | Arbovirus anti repeat=0
CC(=O)N1SC(N)=NC1c1ccccc1 (configuration not stated) | 0 | -3% | -1.7 | 3 | -47
CCOc1ccc(S(=O)(=O)N(CC)CC(=O)N2CCOCC2)cc1C | / | / | -5.8 | 2 | /
Cc1ccc(S(=O)(=O)n2nc(-c3ccco3)nc2N)cc1 | -1 | 3% | / | 0 | /
Cc1nc2ccccn2c1-c1ccnn1S(=O)(=O)c1ccc(F)cc1 | / | 13% | 2.2 | 5 | /
Nc1nc(-c2sc3nc4c(cc3c2N)CCCC4)nc(N2CCOCC2)n1 | -12 | 11% | -7.2 | 16 | /
COc1ccc([N+](=O)[O-])cc1NC(=O)Nc1ccc(OC)c(OC)c1 | -9 | -7% | 2.1 | -3 | /
